GIV Gai3 FP – inhibitors of GIV peptide binding to Galpha-i3, primary screen, biochemical, fluorescence polarization, FITC-GIV GBA peptide, rat Galphai3 | actives 0.42% (n = 210,000) | percent of control (FP), % (concentration not given with the values) | AID 1224905, 2016 | 90 min; hits give low values; scaled: aluminum fluoride 0%, vehicle 100% | Guanine nucleotide-binding protein G(i) subunit alpha-3 (Rattus norvegicus), P08753;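 active = replicate mean at 85% of control or lower, very high polarization wells dropped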;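 also: wells of about 15 µL received 100 nL stock; the first replicate is given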
Target sequence (P08753 whole entry, looked up): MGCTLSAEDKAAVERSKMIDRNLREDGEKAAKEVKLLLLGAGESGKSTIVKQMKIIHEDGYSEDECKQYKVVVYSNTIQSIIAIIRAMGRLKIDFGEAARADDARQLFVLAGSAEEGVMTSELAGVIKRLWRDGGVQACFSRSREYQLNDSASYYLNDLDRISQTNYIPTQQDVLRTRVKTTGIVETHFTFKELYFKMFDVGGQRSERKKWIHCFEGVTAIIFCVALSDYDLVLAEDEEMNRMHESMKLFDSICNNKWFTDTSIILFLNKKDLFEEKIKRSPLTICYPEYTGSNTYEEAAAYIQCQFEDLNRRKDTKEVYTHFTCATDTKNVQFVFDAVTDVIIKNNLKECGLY
HCMV UL50-53 inh – inhibitors of HCMV UL50-UL53 interaction, biochemical, HTRF; HCMV UL50-UL53 nuclear egress complex (human cytomegalovirus); normalized percent inhibition; inhibition, % (no concentration beside the values); actives 0.15% (n = 190,000); AID 1918969, 2023;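 active = both replicates at 50% or more, plus weaker picks with an unusually low signal ratio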;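 also: stock transfer was 100 nL into about 20 µL; 0% = negative control wells and 100% = wells with untagged competitor protein; inactives centre near -12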
Sa growth inh – S. aureus growth inhibition at 42 and 30 °C, primary screen, LtaS inhibitor project, RN4220, two temperatures; OD600, 20 h, 42 °C; hits give low values; relative growth, % (test concentration not listed); actives 0.53% (n = 170,000); AID 720641, 2013;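 active = growth at 42 °C up to 50% and 20 or more points under that at 30 °C, or under 10% at both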;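 also: 300 nL library stock went into each well; scaled to the means of positive and negative controls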
Sa growth inh second temp – second read-out of Sa growth inh, no call of its own (marks repeat the call); relative growth, %; measured here: growth at 30 °C;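 optical density after 20 h as mean of two plates; 100% = untreated growth and lower means inhibition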
Starred values were filed as active, the others as inactive; nt = no result given; & = joins results of further samples; ! = not active in a repeat.

SMILES	GIV Gai3 FP	HCMV UL50-53 inh	Sa growth inh	Sa growth inh second temp
CCOCCCNC(=O)c1c(NC(=O)c2cc(=O)c3cc(C)c(C)cc3o2)sc2c1CCC2	103	10	94	92
CCc1ccccc1NC(=O)C1(S(=O)(=O)c2ccc(Cl)cc2)CC1	102	-4	103	87
CC1=C2C(=NCCN1)C(=O)N(c1ccc(F)cc1)C2c1ccccn1 (stereo not drawn)	228	-64	97	84
O=C(Cc1ccccc1)N1N=C(c2ccc([N+](=O)[O-])cc2)CC1(O)C(F)(F)F (stereo not drawn)	105	-62	nt	nt
O=C(Nc1sc2c(c1C(=O)N1CCOCC1)CCCCC2)c1ccccc1	nt	0	95	116
CCCc1[nH]nc2c1C(c1ccc(OC(=O)N3CCOCC3)c(OC)c1)C(C#N)=C(N)O2 (stereo not drawn)	110	-25	nt	nt
C=CCN(Cc1nc(-c2cccc(C)c2)no1)C(=O)Nc1ccccc1OC	101	-23	nt	nt
CCn1cc(C(=O)N(Cc2ccc(N(C)C)cc2)Cc2ccco2)c(=O)c2ccc(C)nc21	103	nt	107	85
COc1ccccc1OCC(=O)Nn1c(=S)[nH]c2ncccc2c1=O	103	-6	94	63
Cc1ccc(NC(=O)C2CCCN(c3ncnc4onc(C)c34)C2)nc1 (stereo not drawn)	100	7	nt	nt
COC(CNC(=O)c1ccc(-n2c(C)cc3c2CCCC3)cc1)OC	125	-13	104	85
Clc1ccc2oc(-c3ccccc3)cc(=NCCN3CCOCC3)c2c1	97	nt	85	30
CC(=O)c1ccc(NC(=O)CSc2ccc(-c3cccs3)nn2)cc1	103	nt	87	87
CCOc1ccc(OC(=O)c2cn(-c3cccc(OC)c3)c(=O)c3ccccc23)cc1	109	nt	103	100
N#CC1=C(N)Oc2n[nH]c(-c3ccc4c(c3)OCO4)c2C1c1ccc(C(F)(F)F)cc1 (stereo not drawn)	104	-7	nt	nt
Cc1nnc(N2CCC(C(=O)NC(C)C)CC2)c2nn(-c3ccccc3)c(C)c12	107	nt	106	98
Cc1c(C(=O)OC(C)C)c2cc(O)ccc2n1-c1ccccc1	100	-11	119	88
O=C(c1cc(-c2ccc(F)cc2)on1)N1CCCC1c1ccc(F)cc1 (stereo not drawn)	97	4	nt	nt
COc1cc(OC)c(C(=S)N2CCN(CCO)CC2)cc1OC	106	2	94	99
Cn1cc(C(=O)N2CCCCC2)c2[nH]c(=O)n(-c3ccccc3)c(=O)c21	103	-32	nt	nt

Record cards, from the list above.
CC1=C2C(=NCCN1)C(=O)N(c1ccc(F)cc1)C2c1ccccn1 (stereo not drawn) as listed: GIV Gai3 FP = 228; HCMV UL50-53 inh = -64; Sa growth inh = 97; Sa growth inh second temp = 84
Cc1c(C(=O)OC(C)C)c2cc(O)ccc2n1-c1ccccc1 as listed: GIV Gai3 FP = 100; HCMV UL50-53 inh = -11; Sa growth inh = 119; Sa growth inh second temp = 88

Going on with the list:
SMILES	GIV Gai3 FP	HCMV UL50-53 inh	Sa growth inh	Sa growth inh second temp
COc1ccccc1CNS(=O)(=O)c1ccc2[nH]c3c(c2c1)CCCCC3	105	nt	112	100
CCOc1ccc(N(Cc2nc3nc(C)cc(=O)n3[nH]2)C(=O)COc2ccccc2)cc1	104	-18	nt	nt
COc1ccc(CNC(=O)c2ccc(N(C)S(C)(=O)=O)cc2)cc1	104	3	103	34
COC(=O)c1cc2ccsc2n1CC(=O)Nc1cccc(Cl)c1C	103	-12	nt	nt
CC1CCc2nc3ncn(Cc4cc(=O)n5cc(Cl)ccc5n4)c(=O)c3cc2C1 (stereo not drawn)	107	-1	nt	nt
COc1cc(C(=O)N2CCc3ccccc32)cc(OC)c1OC	107	-6	83	109
CC(=O)N1CC(c2ccccc2)CC1=O (stereo not drawn)	109	-23	96	83
COC(=O)c1cnc(N2CCCN(C(=O)NC3CCCCC3)CC2)nc1C(F)(F)F	106	-22	94	85
COC(=O)C1=C(Nc2ccc(F)c(Cl)c2)CSC1	100	-10	109	89
Cc1cc(N2CCN(C)CC2)n2nc(-c3ccc(C(C)(C)C)cc3)nc2n1	114	-6	nt	nt
O=C(Cc1c(C(=O)O)[nH]c2ccccc12)Nc1cccc(C(F)(F)F)c1	104	13	92	80
Cc1ccc(C)c(Cn2cc(S(=O)(=O)c3ccc(Cl)cc3)c(=O)c3cc(F)ccc32)c1	105	-15	102	82
Cc1ccccc1Nc1nc(N)nc(CN(C)Cc2ccc3c(c2)OCCO3)n1	nt	-4	88	82
CC1(C)CC(=O)C(Sc2ccc(Cl)cc2)=C(N2CCOCC2)C1	nt	-11	97	94
CCn1c(COc2cccc3cccnc23)nnc1SCC(=O)OC	102	nt	83	79
CN(Cc1ccccc1NCC(=O)NC1CCCC1)C1CCCCC1	nt	-13	95	88
COc1cccc2c1C(=O)c1c(O)c3c(c(O)c1C2=O)C[C@@](O)(C(=O)CO)C[C@@H]3O[C@H]1C[C@H](N)[C@H](O)[C@H](C)O1	-14*	-178&-70&-134&-151	1.8*!	2.2*!
Cc1nc(-n2nc(C)c(Cc3ccccc3)c2C)sc1C(=O)NC(C)C	102	6	nt	nt
Cc1ccc(S(=O)(=O)Nc2ccc3c(c2)OCO3)cc1C(=O)N1CCOCC1	104	nt	100	81
Cc1cc(NC(=O)CCC2CCCCC2)n(-c2ncnc3c2cnn3-c2ccc(Cl)cc2)n1	100	-21	nt	nt
COc1cc(/C=C2/C(=O)N(c3ccccc3)N=C2C)ccc1OCCOCCOc1ccc(C)cc1	105	-14	nt	nt
O=C(Nc1ccc(Cl)cc1Cl)ONC1=NCCCCC1	nt	-35	64	88
O=C(CSCc1ccccc1)Nc1ccc(-c2nc3cccnc3s2)cc1	103	nt	93	77
CC1CN(C(=O)CCC(=O)NCc2ccccc2)c2ccccc2O1 (stereo not drawn)	98	-19	94	83
CN(C1CCCCC1)S(=O)(=O)c1ccc(Cl)c(C(=O)NCCc2ccccn2)c1	nt	-27	84	89
Cc1ccc(CN(C)C(=O)c2ccccc2OCCOc2ccccc2)o1	nt	-8	97	76
OC(COC1CCCCC1)CN1CCCCC1 (stereo not drawn)	107	8	116	97
COc1ccc(-n2cccc2/C=C2/C(=N)N3C(c4ccccc4)=CSC3=NC2=O)cc1	93	-15	100	76
Cc1cccc(C(=O)Nc2nc(-c3ccccc3)ns2)c1	106	12	nt	nt
CC1CC(C)N(C(=O)CSc2nc3c(c(C(F)(F)F)n2)CCc2ccccc2-3)C(C)C1 (stereo not drawn)	113	nt	67	90
COC(=O)/C(C#N)=C/c1cccc(OC)c1	108	-16	97	95
COC(F)(C(=O)N1CCOCC1)C(F)(F)F (stereo not drawn)	104	-2	119	98
CCN(CC)c1cc(C)c2cc(NC(=O)C3CC3)ccc2n1	102	2	87	92
CSc1sc(-c2ccn(C(=O)Nc3ccccc3)n2)c2c1C(=O)CC(C)(C)C2	102	9	102	98
CCOC(=O)COc1ccccc1O	nt	4	104	97
CCc1ccc(NC(=O)c2cc3c(=O)n(C)c4ccccc4c3s2)cc1	106	nt	122	77
O=C(c1cc2c(=O)oc3ccccc3c2s1)N(Cc1cccs1)C1CCCC1	101	-35	84	89
O=C(CCn1nc(-c2ccccc2)ccc1=O)N1CCOCC1	103	nt	99	86
CC(C)(C)OC(=O)N1CCc2nc(N3CCCCC3)ncc2C1	107	-14	97	88
Cc1ccc(NC(=O)CSc2nc3ccccc3c3nc(CCn4cncc4C)nn23)cc1F	105	nt	98	89
Cc1ccc(Cn2c(C)c(CNCc3ccco3)c(C(=O)O)c2C)cc1	113	21	105	110
CCOC(=O)c1cc(-c2ccccc2)n(CCC(=O)Nc2nc3c(C)cccc3s2)c1C	99	nt	93	87
CC(=O)NC1=NC(=O)/C(=C/c2ccc(-c3ccc(F)cc3F)o2)S1	106	-10	nt	nt
C=CCn1c(SCc2cc3ccc(C)cc3nc2Cl)nnc1-c1ccoc1C	nt	34	108	99
CCCc1cc(=O)n2nc(N3CCCC3C(=O)Nc3ccc(Br)cc3F)sc2n1 (stereo not drawn)	102	-9	nt	nt
Cc1cc(C)c2c(n1)SCC(=O)N2CC(=O)Nc1c(C)cccc1C	100	-36	91	87
CC(=O)OCCS(=O)(=O)c1ccc(C(F)(F)F)cn1	94	-5	79	77
O=C1CN(C(=O)c2ccc(S(=O)(=O)N3CCCC3)cc2)C(c2ccc(F)cc2)c2cc(Br)ccc2N1 (stereo not drawn)	107	9	111	109
CC(C)c1ccc(NC(=O)Cn2nnc(C(=O)Nc3ccc(F)cc3)c2N)cc1	95	-6	nt	nt
OC1CCN(C(=S)Nc2ccc(Nc3ccccc3)cc2)CC1	97	nt	107	82
C=C1c2ccccc2NC(=S)N1Cc1ccc2c(c1)OCO2	nt	-14	112	91
Cc1c(C(=O)NCc2ccco2)oc2c1C(=O)CCC2	105	-30	116	99
O=C(CC1N=C2c3ccccc3N=C(SCc3ccc(F)cc3)N2C1=O)NCc1cccs1 (stereo not drawn)	114	nt	86	80
CCOC(=O)CCN1C(=O)/C(=C/c2ccc3c(c2)OCO3)SC1=S	108	-32	nt	nt
COc1ccc(-c2c(C)nn3c(N4CC(C)CC(C)C4)cc(C)nc23)cc1OC (stereo not drawn)	101	-19	87	83
Cc1ccsc1C=Nc1ccccc1N1CCCCC1	nt	-8	101	96
CN(C)C(=O)CN1CCN(C(=O)c2ccc(N3CCNCC3)c(NS(=O)(=O)c3ccccc3)c2)CC1	101	-19	nt	nt
N#C/C=C(\c1ccc(F)cc1)N1CCOCC1	nt	-3	103	90
CCOc1cc(C(=O)Nc2cc(-c3nc4cc(Cl)ccc4o3)ccc2C)cc(OCC)c1OCC	108	-5	nt	nt
CCC1Oc2cc(S(=O)(=O)N3CCCC(C(=O)N4CCC(C)CC4)C3)c(C)cc2NC1=O (stereo not drawn)	103	-21	nt	nt

Next part; the last two above are carried over.
SMILES	GIV Gai3 FP	HCMV UL50-53 inh	Sa growth inh	Sa growth inh second temp
CCOc1cc(C(=O)Nc2cc(-c3nc4cc(Cl)ccc4o3)ccc2C)cc(OCC)c1OCC	108	-5	nt	nt
CCC1Oc2cc(S(=O)(=O)N3CCCC(C(=O)N4CCC(C)CC4)C3)c(C)cc2NC1=O (stereo not drawn)	103	-21	nt	nt
O=S(=O)(NNc1cnc2ccccc2n1)c1ccccc1C(F)(F)F	109	-35	101	71
Fc1ccc(-c2noc(CSc3ccc(-c4ccccc4)nn3)n2)cc1	111	19	nt	nt
O=C(CSc1nc2ccccc2o1)OCC(=O)N1c2ccccc2Sc2ccccc21	nt	-18	31	35
O=C(c1cc(F)cc(F)c1)N1CC=C(c2ccccc2)CC1	nt	-28	68	68
CC(=O)Nc1ccc(Nc2c3c(c(C#N)c4nc5ccccc5n24)CCCC3)cc1	108	nt	102	80
COc1ccc2oc(C(=O)N3CCN(S(=O)(=O)c4ccc5c(c4)OCCO5)CC3)c(C)c2c1	nt	-25	96	96
Cc1nc(-n2[nH]c(C)c(CCC(=O)N3CCN(c4ccc(F)cc4)CC3)c2=O)sc1C	100	-14	nt	nt
N#Cc1ccc(S(=O)(=O)NC2CCCCNC2=O)cc1 (stereo not drawn)	106	-29	91	86
COC(=O)CCNC(=O)NC(CCC(C)C)c1c(-n2cccc2)sc2c1CCN(C)C2 (stereo not drawn)	120	nt	108	94
Cn1c(=O)c(=O)n(C)c2cc(N3CCCCC3)c(NS(=O)(=O)c3ccc(Cl)cc3)cc21	107	-12	nt	nt
Cc1nc2nc[nH]n2c(=O)c1NC(=O)Nc1ccccc1Br	107	7	nt	nt
O=C(Nc1cccc(-c2nc3cc(Cl)ccc3o2)c1)c1ccc(F)cc1	104	nt	97	89
CCN1C(=O)c2cc(C(=O)NC3CCCCC3)nn2CC1(C)C(=O)NC1CCCC1 (stereo not drawn)	97	-4	nt	nt
Cc1c(C(=O)N(C)C)sc2c1c(=O)n(-c1ccc(Cl)cc1)c(=O)n2Cc1ccccc1F	102	nt	116	91

Among those listed so far, these contain a cyano group.
SMILES	GIV Gai3 FP	HCMV UL50-53 inh	Sa growth inh	Sa growth inh second temp
CCCc1[nH]nc2c1C(c1ccc(OC(=O)N3CCOCC3)c(OC)c1)C(C#N)=C(N)O2 (stereo not drawn)	110	-25	nt	nt
N#CC1=C(N)Oc2n[nH]c(-c3ccc4c(c3)OCO4)c2C1c1ccc(C(F)(F)F)cc1 (stereo not drawn)	104	-7	nt	nt
COC(=O)/C(C#N)=C/c1cccc(OC)c1	108	-16	97	95
N#C/C=C(\c1ccc(F)cc1)N1CCOCC1	nt	-3	103	90
CC(=O)Nc1ccc(Nc2c3c(c(C#N)c4nc5ccccc5n24)CCCC3)cc1	108	nt	102	80
N#Cc1ccc(S(=O)(=O)NC2CCCCNC2=O)cc1 (stereo not drawn)	106	-29	91	86
